AP complement: alternative complement pathway inhibitors, primary screen, biochemical, ELISA, human serum, orthogonally pooled compounds; inhibition, % at 5 µM; LPS-coated ELISA, C3 deposition; tested in compound mixtures; hit rate 0.08% among 62,000; AID 1235, 2008;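 active = inhibition above 30% in each of the two pooled mixtures holding the compound, so the lower value exceeds 30%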;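 also: 0% = serum in Mg-EGTA without compound and 100% = EDTA serum blank; some compounds past the cut are filed as inactive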
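Test system: human serum alternative complement pathway, C3 deposition on LPS-coated wells; also added: Plate-bound LPS; doses: 5 µM per compound in ten-compound mixtures; schedule: 1 h at 37 °C; detection: Anti-C3 ELISA, OD 450 nm; evaluation: percent inhibition of C3 deposition onto LPS; repeats: two pool placements per compound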
Hsp90 block: tumor Hsp90 inhibitors, primary screen, cell lysate, fluorescence polarization, NCI-N417 lysate; Cy3B-geldanamycin FP displacement; inhibition, % at 30 µM; hit rate 0.35% among 64,000;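 active = inhibition above 50%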;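 also: 0% = tracer plus lysate wells and 100% = tracer alone without lysate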
Cdc25B block: inhibitors of Cdc25B phosphatase catalytic domain, primary screen, biochemical, OMFP fluorescence; M-phase inducer phosphatase 2 (Homo sapiens), P30305; recombinant Cdc25B, OMFP fluorescence Ex485/Em525; inhibition, %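 (compounds tested at 10 µM final in the well)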; hit rate 0.1% among 65,000; in the data active = inhibition above about 50%
MMP-13 inhibitor: human MMP13 inhibitors, primary screen, biochemical, FRET peptide cleavage. hit rate 0.07% among 65,000. inhibition, % at 4 µM. AID 570, 2006. MMP-13 fTHP FRET cleavage, Mca fluorescence. Collagenase 3 (Homo sapiens), P45452;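 active = inhibition above the mean of compound-free control plate wells plus 3 SD, cut at about 14% in these data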;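 also: 0% = DMSO wells and 100% = wells with reference MMP-13 inhibitor after basal subtraction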
FXIIa inh mix: human factor XIIa inhibitors, primary screen, biochemical, pooled compound mixtures, fluorogenic substrate; purified FXIIa; inhibition, % at 5 µM; Coagulation factor XII (Homo sapiens), P00748; hit rate 0.2% among 62,000;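 also: 0% = enzyme without compound and 100% = no enzyme blank; some results filed as inactive read as strong as hits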
DUSP1 inh: MKP-1 phosphatase inhibitors, primary screen, biochemical, in vitro; inhibition, %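 (compounds tested at a single concentration somewhere between 10 and 100 µM)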; hit rate 0.15% among 65,000; Dual specificity protein phosphatase 1 (Homo sapiens), P28562; AID 374, 2006; recombinant MKP-1, OMFP hydrolysis fluorescence;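 active = inhibition above about 50%, limit read from the data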;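 also: 0% = DMSO max control wells and 100% = wells with enzyme stopped by NaOH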
FXIa inh mix: FXIa protease inhibitors in compound pools, primary screen, biochemical, 10-compound mixtures | Coagulation factor XI (Homo sapiens), P03951 | purified FXIa, fluorogenic substrate, pooled mixtures | inhibition, % at 5 µM | hit rate 0.19% among 62,000;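 also: each value is inhibition by a whole ten-compound pool holding the compound; 0% = enzyme with no mixture and 100% = wells lacking enzyme; strong numbers were not always called active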
Target sequence (P03951 19-387 limits assumed): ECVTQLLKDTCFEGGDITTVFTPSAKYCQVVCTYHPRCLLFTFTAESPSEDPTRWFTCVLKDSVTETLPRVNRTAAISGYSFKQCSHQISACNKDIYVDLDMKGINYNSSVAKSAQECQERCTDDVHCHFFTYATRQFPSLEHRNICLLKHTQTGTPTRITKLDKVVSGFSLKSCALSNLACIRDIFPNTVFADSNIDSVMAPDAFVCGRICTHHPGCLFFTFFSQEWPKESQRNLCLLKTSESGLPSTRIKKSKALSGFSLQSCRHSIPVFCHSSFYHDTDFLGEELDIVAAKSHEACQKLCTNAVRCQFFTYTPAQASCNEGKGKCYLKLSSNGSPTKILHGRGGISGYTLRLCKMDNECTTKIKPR
Target sequence (P03951 388-625 limits assumed): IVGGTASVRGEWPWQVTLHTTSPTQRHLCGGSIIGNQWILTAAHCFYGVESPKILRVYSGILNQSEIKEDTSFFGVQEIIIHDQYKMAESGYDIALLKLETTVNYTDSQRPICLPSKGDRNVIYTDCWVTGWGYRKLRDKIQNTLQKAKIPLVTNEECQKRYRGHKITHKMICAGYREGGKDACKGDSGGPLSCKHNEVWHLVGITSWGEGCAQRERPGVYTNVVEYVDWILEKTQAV
A340 absorber: compound light absorbance at 340 nm, profiling panel, artefact control, biochemical, MLSMR library, data from PS, PMK, MK assays. compound absorbance at 340 nm, fold over control. fold change at 10 µM. 65,000 tested, under 10 active. AID 708, 2007;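 active = at 10 µM dose, initial 340 nm absorbance at least 2 fold that of control wells; inactive = change under 2 fold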;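 also: initial absorbance extrapolated from kinetic A340 decline of NADH oxidation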
The depositor's hits bear a star; x = not tested or not shown; [ ] = remark or other dose. Rule as the data show it, unless noted: active = inhibition above about 20% (passing the limit was not always enough); inactive = the rest. This is a subset; rates above refer to the full screens.

SMILES	AP complement	Hsp90 block	Cdc25B block	MMP-13 inhibitor	FXIIa inh mix	DUSP1 inh	FXIa inh mix	A340 absorber
COc1ccc(C(=O)Nc2ccc(-c3ccc(C)o3)cc2)cc1S(=O)(=O)N1CCOCC1	11	-5	-4	4	-12	15	11	1
COC(=O)c1ccccc1NC(=O)CSc1ccccn1	-1	-2	-11	2	9	-9	-4	0.97
c1ccc(-c2nc(NCCCN3CCOCC3)c3ccccc3n2)cc1	2	1	-12	-4	7	5	1	1.1
CCN1CCN(C(=O)c2ccc3c(=O)n(C4CCCC4)c(=S)[nH]c3c2)CC1	-16	-1	-7	3	3	23	-9	1
Cc1noc(C)c1S(=O)(=O)N(CC(=O)N1CCCCCC1)c1ccc(C(C)C)cc1	13	0	-7	2	4	-1	16	1
COC(=O)c1ccccc1NC(=O)CN1CCN(C(=O)c2ccco2)CC1	x	-13	-2	9	x	-1	x	1.1
CC(=O)Cc1nsc(NC(=O)c2ccccc2)n1	6	-1	-28	2	2	4	4	1
CCSc1ccccc1C(=O)NCCCn1ccnc1	-2	6	-5	-1	4	2	5	1.1
CCCCCc1cc(O)c2c(C)cc(=O)oc2c1	13	0	-4	5	11	4	7	1
CCc1nc(NCC2CCCO2)c(C#N)c2c1COC(C)(C)C2 (centres undefined)	x	-1	20	-104[fluorescence artefact?]	x	13	x	1
Cc1cccc(NC(=O)c2ccccc2NC(=O)C(C)(C)C)n1	-15	4	-14	6	7	-24	-7	0.97
Cc1cc(N2CCOCC2)n2nc(-c3cccc(F)c3)cc2n1	11	2	2	-6	1	10	4	1
COc1ccc(S(=O)(=O)NCCC(=O)NC2CCCCCCC2)cc1	6	-3	-8	3	3	9	11	0.99
CCOCCCn1c(=S)[nH]c2ncccc2c1=O	0	-1	-5	-4	10	-3	13	1
O=C(c1ccc(F)cc1)C(CN1CCOCC1)c1ccccc1 (centres undefined)	5	-1	-17	8	3	-16	4	1
Cn1c(=O)c2c(ncn2CC(=O)N2CCN(c3ccccc3F)CC2)n(C)c1=O	-4	0	-9	-1	2	3	7	1.1
COc1cccc(C2=NOC(C(=O)NC(C)(C)C)C2)c1 (centres undefined)	18	-4	2	1	10	1	-3	1
CCOc1ccc(N(CC)C(=O)COc2cc(=O)n(C)c3ccccc23)cc1	9	-2	-5	3	5	10	1	0.98
C/C(Nc1ccc(F)cc1)=C(/C#N)C(N)=O	7	-1	8	0	-21	22	2	1.1
Cc1ccc(S(=O)(=O)N(C)Cc2nc(-c3ccccn3)no2)cc1	x	-6	-3	2	x	-1	x	1

4 compounds already listed, ordered by the number in FXIa inh mix, low to high.
| structure | FXIa inh mix |
| --- | --- |
| COC(=O)c1ccccc1NC(=O)CSc1ccccn1 | -4 |
| COc1cccc(C2=NOC(C(=O)NC(C)(C)C)C2)c1 (centres undefined) | -3 |
| CCSc1ccccc1C(=O)NCCCn1ccnc1 | 5 |
| CCCCCc1cc(O)c2c(C)cc(=O)oc2c1 | 7 |

An excerpt taken from the entries so far, for reference:
SMILES	AP complement	Hsp90 block	Cdc25B block	MMP-13 inhibitor	FXIIa inh mix	DUSP1 inh	FXIa inh mix	A340 absorber
COC(=O)c1ccccc1NC(=O)CSc1ccccn1	-1	-2	-11	2	9	-9	-4	0.97
c1ccc(-c2nc(NCCCN3CCOCC3)c3ccccc3n2)cc1	2	1	-12	-4	7	5	1	1.1
CCN1CCN(C(=O)c2ccc3c(=O)n(C4CCCC4)c(=S)[nH]c3c2)CC1	-16	-1	-7	3	3	23	-9	1

Entries of single compounds, quoted from the list. Order of values: AP complement, Hsp90 block, Cdc25B block, MMP-13 inhibitor, FXIIa inh mix, DUSP1 inh, FXIa inh mix, A340 absorber
`Cc1noc(C)c1S(=O)(=O)N(CC(=O)N1CCCCCC1)c1ccc(C(C)C)cc1` reads 13, 0, -7, 2, 4, -1, 16, 1
`CCOc1ccc(N(CC)C(=O)COc2cc(=O)n(C)c3ccccc23)cc1` reads 9, -2, -5, 3, 5, 10, 1, 0.98
`COc1ccc(S(=O)(=O)NCCC(=O)NC2CCCCCCC2)cc1` reads 6, -3, -8, 3, 3, 9, 11, 0.99
`CCCCCc1cc(O)c2c(C)cc(=O)oc2c1` reads 13, 0, -4, 5, 11, 4, 7, 1
`COC(=O)c1ccccc1NC(=O)CN1CCN(C(=O)c2ccco2)CC1` reads x, -13, -2, 9, x, -1, x, 1.1

Screening results from PubChem.
